# gsp ag – gsp mutant agonism. Potency, µM (titrated, usually from 76.9 µM), without a hit: at the highest dose activation (cAMP increase), actives largely listed as activators. gsp mutant cells, cAMP HTRF, 30 min; control for the full effect not named in the record. AID 624287. 0.13% of 340,000 active; active = well fitted activation curve with a large enough effect; inconclusive = small, poorly fitted or top-dose-only effect, or another doubt; inactive = no such curve, though single readings can be large or run the other way; cell line not stated here;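 further: phosphodiesterase inhibitor Ro 20-1724 added with compounds to block cAMP breakdown; potency means the concentration at half of the fitted maximal effect; nearly all actives have a fitted effect of over 60% in size; about a fifth of the inactives were tested at one dose only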
#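 Cells stably selected in G418 were plated at 2000/well, grown 16-24 hr, then given compounds in DMSO with the PDE inhibitor […] (300 uM solution added) for 30 min at 37C; cAMP was read by HTRF.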
# Sfp PPTase inh – inhibitors of Bacillus subtilis Sfp phosphopantetheinyl transferase. Q9F4F7. AID 1490. Potency, µM, inactives show max response, negative = inhibition, most hits filed as inhibitors. 3.5% of 310,000 active. Biochemical Sfp PPTase activity, qHTS; active means well fitted inhibition curve with a large enough effect; inconclusive means small, poorly fitted or top-dose-only effect, or another doubt; inactive means no such curve, though single readings can be large or run the other way;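 further: the enzyme is Sfp with the accession as filed and its product quenches rhodamine fluorescence; potency means the concentration at half of the fitted maximal effect; 0% = enzyme reaction without inhibitor and -100% = no enzyme wells; top concentration of the series not given in the record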
#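 Buffer: 50 mM Hepes-Na pH 7.6, 10 mM MgCl2, 0.01% Nonidet P-40, 0.01% BSA. Enzyme 15 nM, pre-exposed to compound 15 min; substrates then added and fluorescence change tracked over 30 min.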
# TRPV1 potentiator – potentiators of human vanilloid receptor 1 (TRPV1); potentiation, % at 8.33 µM; AID 540277; TRPV1-expressing cells, Fluo-8 calcium influx, capsaicin EC20 potentiation; host cell line not named in the record; control for the full effect not named in the record; 0.02% of 320,000 active; active means potentiation above 80%; inconclusive means 30% to 80%; inactive means below 30%; further: 0% is about no effect
# Target sequence (Q8NER1 whole entry, looked up): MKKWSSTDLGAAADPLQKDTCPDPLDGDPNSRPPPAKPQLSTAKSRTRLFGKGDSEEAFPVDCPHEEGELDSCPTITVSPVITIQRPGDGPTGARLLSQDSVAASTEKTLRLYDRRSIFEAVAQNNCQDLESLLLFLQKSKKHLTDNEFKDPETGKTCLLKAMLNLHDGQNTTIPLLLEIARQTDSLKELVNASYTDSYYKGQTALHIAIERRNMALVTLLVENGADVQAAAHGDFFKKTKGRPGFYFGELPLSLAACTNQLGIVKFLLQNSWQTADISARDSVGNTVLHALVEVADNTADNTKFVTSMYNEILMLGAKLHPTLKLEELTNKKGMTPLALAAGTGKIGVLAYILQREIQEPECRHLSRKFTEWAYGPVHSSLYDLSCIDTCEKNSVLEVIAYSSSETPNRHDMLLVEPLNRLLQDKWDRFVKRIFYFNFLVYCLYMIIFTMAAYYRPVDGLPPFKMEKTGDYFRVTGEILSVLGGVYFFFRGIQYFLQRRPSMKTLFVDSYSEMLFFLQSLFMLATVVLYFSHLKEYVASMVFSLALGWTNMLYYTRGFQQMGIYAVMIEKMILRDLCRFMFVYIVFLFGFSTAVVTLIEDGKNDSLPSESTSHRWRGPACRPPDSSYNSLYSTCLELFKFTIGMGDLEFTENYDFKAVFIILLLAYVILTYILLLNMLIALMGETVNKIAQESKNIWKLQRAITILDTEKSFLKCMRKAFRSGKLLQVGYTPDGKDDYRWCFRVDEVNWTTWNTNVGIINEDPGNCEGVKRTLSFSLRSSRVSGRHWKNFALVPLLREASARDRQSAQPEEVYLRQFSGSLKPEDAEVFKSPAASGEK
#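 Fluo-8 calcium influx in TRPV1-expressing cells, kinetic read (ex 480/em 520 nm). Compound added and read 3 min for agonist activity, followed by capsaicin at EC20 final and 2 min further read for enhancement.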
# gsp antagonist – antagonizes gsp, the McCune-Albright syndrome mutation; 0.4% of 340,000 active; gsp-mutant cells, cAMP HTRF, 30 min; control for the full effect not named in the record; Potency, µM (titrated, usually from 76.9 µM), inactives show at the top dose activity change, negative = inhibition, hits mostly inhibitors; active = falling curve of any shape with a large fitted effect; inconclusive = falling curve, mostly with a smaller effect; inactive = flat or rising curve; cell line not stated here;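 further: intracellular cAMP measured with PDE inhibitor Ro 20-1724 present during compound exposure; potency means the concentration at half of the fitted maximal effect; on the % scale 0 is the no-effect control and ±100 the full control effect; nearly all actives have a fitted effect of over 65% in size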
#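 HTRF cAMP read-out (cAMP-d2 plus anti-cAMP antibody-K in lysis buffer, 30 min RT). Before lysis, cells are exposed to compounds with […] for 30 min at 37C in DPBS containing Ca/Mg, BSA and Tween 20.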
# ClpP mod – qHTS Assay for Activators of ClpP; ATP-dependent Clp protease proteolytic subunit (Bacillus subtilis (strain 168)), P80244; purified B. subtilis ClpP, FRET peptide cleavage, 20 min; Potency, µM (doses to about 57.5 µM), for the others: top-dose activity change, negative = active; 1.9% of 340,000 active; AID 651965, 2013; active = well fitted falling curve with a large enough effect; inconclusive = small, poorly fitted or top-dose-only effect; inactive = no such curve, though single readings can be large or run the other way; further: potency means the concentration at half of the fitted maximal effect; the source files actives as falling curves though it sought activators and does not explain the sign; nearly all actives have a fitted effect of over 65% in size; many hits overshoot -100%
# Target sequence (P80244 whole entry, looked up): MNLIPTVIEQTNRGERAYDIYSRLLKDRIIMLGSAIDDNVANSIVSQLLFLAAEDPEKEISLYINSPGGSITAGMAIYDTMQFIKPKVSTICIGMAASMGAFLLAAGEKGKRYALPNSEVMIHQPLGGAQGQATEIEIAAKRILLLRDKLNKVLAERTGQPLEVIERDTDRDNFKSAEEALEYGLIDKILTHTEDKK
#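 Purified B. subtilis ClpP, 10 microg/mL final in Tris/HCl pH8 with KCl, BSA, glycerol and Tween-20, cleaved an Abz/nitrotyrosine-quenched decapeptide. Fluorescence (ex 320, em 430) was read at 0 and 20 min at room temperature. Delta was normalized to 5.8 microM ADEP and DMSO/no-enzyme controls.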
# Menin MLL FP FL – menin-MLL binding inhibition, fluorescein peptide | Fluorescence polarization, fluorescein-MLL peptide displacement from menin | FP activity change, % at 61.4 µM | 290,000 tested, under 10 active; inconclusive = falling polarisation curve, or a change in total fluorescence; inactive = total fluorescence flat and polarisation flat or rising; no compound was filed as active; the % refers to the polarisation; negative = inhibition;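 further: % of control where 0% means no effect; inhibitors lower the polarisation; unlabelled MLL peptide was the positive control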
# CtBP-E1A blk – CtBP/E1A binding inhibition; AlphaScreen GST-E1A/His-CtBP binding, 1536-well; stronger effect = lower value; control for the full effect not named in the record; activity change, % (no concentration beside the values); 0.49% of 340,000 active; AID 651724; in the data active means activity change below about -65%; inconclusive means about -30% to -65%; inactive means above about -30%; further: on the % scale 0 is the no-effect control and ±100 the full control effect; compound concentration not given in the record
#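 Steps: dispense buffer (Tris pH 8.0, NaCl 300 mM, TCEP 1 mM, BSA, Tween 20); add 5X protein mix (GST-E1A, His-CtBP, 125 nM each); pin 23 nL compound; 2 h at 37 °C, dark; add 5X beads (50 ug/mL); 1 h; read.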
# Active calls of the source: *; ? = inconclusive; / = no result given; [ ] = dose if it differs, or a comment. Hits appear at their usual frequency. About 5.3% of those tested had a hit in this group.
SMILES,gsp ag,Sfp PPTase inh,TRPV1 potentiator,gsp antagonist,ClpP mod,Menin MLL FP FL,CtBP-E1A blk
COc1ccc(CCN(C(=O)c2ccccc2)C2=CC3CCC(C2)N3C)cc1OC (stereo not drawn),/,9%,-1,/,/,6.6,/
COc1cc(C(=O)Nc2nnc(C)s2)c([N+](=O)[O-])cc1OC,4%[15.4 µM],-2%,-6,-18%,-0.6%,1.7,16
Cc1ccc(C(=O)N/N=c2\sc3ccccc3n2C)cc1,-20%,5%,-13,2%,-1.0%,5.0,-8
COc1cccc(OC)c1C(=O)Nc1cccc2c1CCCC2,3%,10%,-14,7%,0.1%,-0.9,7
CCc1ccc2oc(-c3cccc(NC(=O)c4cccnc4)c3)nc2c1,-3%,12%,-11,?,2.4%,-0.2,-6
Cc1cc(NC(=O)CSCC(=O)N(C)Cc2ccc(F)cc2)no1,18%,17%,1,-14%,0.4%,/,-3
COc1ccc(CCNC(=O)c2c(O)c3ccccc3[nH]c2=O)cc1,-5%,13%,14,7%,-3.2%,0.5,6
CSc1ncnc2sc(C)c(C)c12,5%,4%,2,-1%,-27%,-4.5,/
CCCNC(=O)c1ccccc1C(=O)NC1(C(=O)NCCC)CCCC1,4%,14%,-9,-4%,0.7%,1.9,/
O=C(NCCN1CCOCC1)[C@H](Cc1ccccc1)N1C(=O)c2ccccc2C1=O,0%,2%,-15,-9%,3.6%,-0.6,2
Cc1nc2ccc(CCO)cc2s1,-22%,13%,-9,2%,-1.6%,0.5,-1
CCOC(=O)c1ccc(NC(=O)CN(C)S(=O)(=O)c2ccc(Br)s2)cc1,-9%[15.4 µM],1%,-2,?,1.1%,7.7,4
CN(CC(=O)O)C(=O)c1ccccc1,/,/,/,0%,1.9%,/,-6
O=S1(=O)CC2SC(=S)N(Cc3ccccc3)C2C1 (stereo not drawn),-16%[15.4 µM],23%,-5,4%,/,0.4,12
Cn1c(CO)cnc1-c1ccccc1,?,7%,29,-1%,1.4%,4.2,/
CCCCN(C(=O)CSc1cc(C)c2ccccc2n1)c1c(N)n(Cc2ccccc2)c(=O)[nH]c1=O,-4%[15.4 µM],-3%,6,-7%,1.1%,5.2,0
Cc1ccc(C(=O)Nc2ccc3cn[nH]c3c2)cc1S(=O)(=O)N1CCCCC1,-2%,2%,18,-7%,-1.6%,-3.4,-16
Cc1nc2cc(C(F)(F)F)ccc2n1C1CCN(C(=O)N2CCOCC2)CC1,-41%[inhibitor],3%,-1,9%,-1.2%,3.1,15
O=C(c1ccc(F)cc1)C1CCN(C(=O)Nc2ccccc2Cl)CC1,-15%,-1%,-6,-10%,/,-5.2,13
CC(C)CC(=O)Nc1ccc(C(=O)COC(=O)C2=COCCO2)cc1,-4%,/,29,11%,-4.8%,/,-22
Cc1cc(/C=C(\C#N)C(=O)O)c(C)n1CC1CCCO1 (stereo not drawn),13%,19%,6,7%,0.0%,-1.0,/
Cn1ncc(Cl)c1C(=O)Nc1cccnc1,3%,-8%,0,7%,0.2%,-0.9,0
Cc1ccc(SC(c2ccccc2)C(Cn2cncn2)C(=O)c2ccccc2)cc1 (stereo not drawn),26%,6%,-17,4%,1.1%,-2.1,2
CN(c1ccccc1)S(=O)(=O)c1cccc(NC(=O)C2=NNC(=O)CC2)c1,-16%,/,/,-9%,/,/,-23
COc1ccc(/C(C)=N/N2C(=O)c3ccccc3NC2c2ccc(O)c(OC)c2)cc1 (stereo not drawn),?,10%,6,-6%,-5.7%,-0.4,22
O=C1[C@H]2[C@@H](/C=C/c3ccccc3)N3C(=O)CN(CCO)C(=O)[C@@]3(Cc3ccccc3)[C@H]2C(=O)N1c1ccccc1,/,2%,0,9%,-4.3%,5.4,-9
Cc1c(Br)c([N+](=O)[O-])nn1CC(=O)N1CCc2ccccc21,-29%[15.4 µM],9%,1,11%,/,-5.4,-9
O=C(Nc1nc2ccc(S(=O)(=O)N3CCCCC3)cc2s1)C1CCCO1 (stereo not drawn),-13%,2%,-14,-7%,1.7%,1.5,2
COc1cccc2sc(NNC(=O)C3COc4ccccc4O3)nc12 (stereo not drawn),-7%[15.4 µM],79µM*,23,10%,/,0.8,0
C/C(=N\NC(=O)NC1CCCCC1)c1ccc(Cl)s1,-4%[15.4 µM],8%,1,1%,-0.4%,-7.7,-3
CC(=O)Oc1ccc(-c2ccc(C(=O)OCC(=O)c3c(N)n(C)c(=O)n(C)c3=O)cc2)cc1,-32%[inhibitor],/,/,-35%,4.5%,/,-8
CC(c1nnc(SCC(=O)c2c(N)n(C)c(=O)n(C)c2=O)n1-c1ccc(Cl)cc1)N(C)C (stereo not drawn),-30%,0%,1,2%,0.0%,-3.8,8
CN(C)c1ccc(C(=O)NCC2CCCO2)cc1 (stereo not drawn),0%,-3%,3,4%,-0.8%,3.0,2
COc1ccc(CC(=O)OCC(=O)Nc2ncc(Cl)cc2Cl)cc1,-17%,4%,10,-9%[15.4 µM],-0.6%,2.7,5
Cc1ccc(NCC(=O)Nc2c(C)n(C)n(-c3ccccc3)c2=O)cc1S(=O)(=O)N(C)C,?,19%,5,7%,-1.7%,3.5,-5
Cn1cc(S(=O)(=O)c2ccccc2)c(=O)c2cc(F)c(N3CCOCC3)cc21,4%,9%,2,-5%,28µM*,-0.4,-15
Cc1ccc(CN(C)CC(=O)Nc2ccccc2C(=O)NC2CC2)o1,-2%,/,14,3%,-2.4%,/,-5
CCCCCCNC(=O)OC12CN(C(=O)OC(C)C)N(C(=O)OC(C)C)CC1(O)CN(S(=O)(=O)c1ccc(C)cc1)C2 (stereo not drawn),-35%[inhibitor],/,/,/,1.6%,/,4
Cc1cc(C)n2nc(C(=O)N/N=C/c3c4ccccc4cc4ccccc34)nc2n1,-12%,1%,4,2%,0.9%,?,-18
COc1ccc(O)c(C(=O)c2cc(C(=O)NCCc3ccccc3)c(=O)n(CCc3ccccc3)c2)c1,-15%,-10%,?,-17%,4.6%,/,?
O=C(CN1C(=O)S/C(=C/c2ccncc2)C1=O)N1CCOCC1,6%[15.4 µM],10%,0,2%,-1.6%,1.0,-14
CCOc1ccc(NC(=O)CN(c2ccc(OC)cc2)S(=O)(=O)c2cccs2)cc1,-5%,/,4,8%,-1.9%,/,-1
CCCCC(=O)Nc1ccc(NC(=O)C(C)C)cn1,-2%,16%,3,-4%,-0.8%,-0.3,1
CC(=O)[C@H]1CC[C@H]2[C@@H]3CCC4=CC(=O)CC[C@]4(C)[C@H]3[C@H](O)C[C@]12C,/,-11%,-3,-5%,-0.2%,-0.4,0
Cc1ccc(Cn2c(C(CO)Nc3nc(-c4ccc(F)cc4)cs3)nc3ccccc32)cc1 (stereo not drawn),-32%[inhibitor],/,/,-12%,-0.7%,/,-1
O=C(COC(=O)/C=C/c1cccc(Cl)c1)Nc1c(F)cccc1F,-2%[15.4 µM],/,/,10%,0.5%,/,8
Cc1ccc(NC(=O)CN(C)C(=O)Cn2ncc(Cl)c(Cl)c2=O)cc1,18%,-9%,-13,-4%,-4.9%,1.9,20
CC(NC(=O)COC(=O)C1CC1C)c1cccc(Cl)c1 (stereo not drawn),34%,/,/,12%,1.3%,/,11
Nc1nnc(-c2ccc(F)cc2)s1,-18%,-1%,0,0%,-24%,-0.4,0
Cc1cc(CN2CCCC(N3CCc4ccccc4C3)C2)cc(C)c1O (stereo not drawn),-34%[inhibitor],2%,3,10%,2.4%,2.3,5
# Additional records:
SMILES,gsp ag,Sfp PPTase inh,TRPV1 potentiator,gsp antagonist,ClpP mod,Menin MLL FP FL,CtBP-E1A blk
Nc1nc(SCC(=O)NCC2CCCO2)[nH]c(=O)c1NC(=O)c1ccc(F)c(F)c1 (stereo not drawn),-6%[15.4 µM],8%,6,3%,1.8%,/,6
Cc1ccc(-n2nc(C(=O)N3CCN(C)CC3)c3c4ccccc4n(C)c3c2=O)cc1,-10%,/,/,-3%,-6.2%,/,-5
COc1ccc(OC)c(NC(=O)c2cc(-c3cc(Cl)ccc3O)n[nH]2)c1,-60%[inhibitor],21%,?,?,110%,3.8,-8
COc1cc(OC)cc(C(=O)N2CCN(C(=O)Cc3ccccc3)CC2)c1,14%[15.4 µM],1%,2,0%,-12%,-3.2,9
COc1ccc(-c2csc(NC(=O)COC(=O)c3ccc(Br)o3)n2)cc1,/,8%,16,/,/,3.2,/
O=c1[nH][nH]cc1C=Nc1ccc(Oc2ccccc2)cc1,-11%[15.4 µM],6%,-7,6%,/,0.4,-1
CCCc1ccc(OCC(O)CN2CCN(CCO)CC2)cc1 (stereo not drawn),21%,12%,-2,8%,3.8%,-0.2,-1
Cc1ccc(C2Nc3cccc4cccc(c34)N2)s1,5%,?,1,0%,-4.3%,?,1
C/C(=N\NC(=O)c1ccccc1)c1ccccc1Br,-10%[15.4 µM],10%,?,8%,/,1.6,-13
COC(=O)CSc1nnc(CNc2ccc(OC)cc2)n1C,-40%[inhibitor],-6%,0,-6%,0.8%,0.5,0
O=C(NCc1ccc(Cl)cc1)c1cc2ccccc2oc1=O,4%[15.4 µM],4%,-6,6%,20µM*,1.5,4
COc1cc(NC(=O)C2CC(c3c(F)cccc3Cl)=NO2)cc(OC)c1OC (stereo not drawn),0%,3%,11,-19%,/,-0.7,0
CCN(CC)S(=O)(=O)c1ccc(S(=O)(=O)Nc2ccc(C(=O)N3CCCC3)cc2)cc1,-15%,11%,15,-35%,-1.5%,3.0,0
COc1ccc(S(=O)(=O)NCC(c2cccnc2)N2CCN(Cc3ccccc3)CC2)cc1 (stereo not drawn),17%,10%,0,-7%,1.8%,/,-1
Cc1ccc(Cc2cncc(O)c2)cc1S(=O)(=O)O,21%,-26%,-8,12%,-16%,0.3,7
Cc1ccccc1C(N)c1ccncc1 (stereo not drawn),-2%,4%,8,5%,-0.7%,3.2,/

# Screens: PubChem BioAssay, National Center for Advancing Translational Sciences (NCATS)
